HCMV NEC inh: inhibitors of HCMV UL50-UL53 interaction, biochemical, HTRF | HCMV UL50-UL53 nuclear egress complex (human cytomegalovirus) | normalized percent inhibition | inhibition, % (test concentration not listed) | 0.15% of 190,000 active;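 active means both replicates at 50% or more, plus weaker picks with an unusually low signal ratio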;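 further: stock transfer was 100 nL into about 20 µL; 0% = negative control wells and 100% = wells with untagged competitor protein; inactives centre near -12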
Sa growth 42C: S. aureus growth inhibition at 42 and 30 °C, primary screen, LtaS inhibitor project, RN4220, two temperatures; OD600, 20 h, 42 °C; stronger effect = lower value; relative growth, % (test concentration not listed); 0.53% of 170,000 active;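 active means growth at 42 °C up to 50% and 20 or more points under that at 30 °C, or under 10% at both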;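 further: 300 nL library stock went into each well; scaled to the means of positive and negative controls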
GIV-Gai inh: inhibitors of GIV peptide binding to Galpha-i3, primary screen, biochemical, fluorescence polarization, FITC-GIV GBA peptide, rat Galphai3 | Guanine nucleotide-binding protein G(i) subunit alpha-3 (Rattus norvegicus), P08753 | 90 min; stronger effect = lower value; scaled: aluminum fluoride 0%, vehicle 100% | percent of control (FP), % (no concentration beside the values) | 0.42% of 210,000 active | AID 1224905, 2016;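 active means replicate mean at 85% of control or lower, very high polarization wells dropped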;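 further: wells of about 15 µL received 100 nL stock; the first replicate is given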
Target sequence (P08753 whole entry, looked up): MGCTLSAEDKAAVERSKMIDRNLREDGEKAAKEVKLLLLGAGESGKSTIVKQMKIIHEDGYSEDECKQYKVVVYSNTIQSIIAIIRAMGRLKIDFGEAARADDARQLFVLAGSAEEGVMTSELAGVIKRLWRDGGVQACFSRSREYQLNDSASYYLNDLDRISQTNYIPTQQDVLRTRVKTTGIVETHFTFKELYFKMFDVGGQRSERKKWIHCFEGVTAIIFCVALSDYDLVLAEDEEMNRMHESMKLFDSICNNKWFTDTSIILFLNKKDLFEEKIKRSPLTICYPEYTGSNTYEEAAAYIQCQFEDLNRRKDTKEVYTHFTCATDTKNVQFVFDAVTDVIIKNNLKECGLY
Sa growth 42C second temp: further read-out of Sa growth 42C, marked with its call; relative growth, %; measured here: growth at 30 °C;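 optical density after 20 h as mean of two plates; 100% = untreated growth and lower means inhibition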
An asterisk follows results filed as active; & = joins results of further samples.

For Cc1cc(=O)oc2cc(OCC(O)CN3CCc4ccccc4C3)ccc12 (stereo not given) the results were HCMV NEC inh -11, Sa growth 42C 104 and Sa growth 42C second temp 78.
`N#CCCNC12CC3CC(CC(C3)C1)C2` gave HCMV NEC inh 0, Sa growth 42C 88 and Sa growth 42C second temp 93.
For CCC(C)n1c(SCc2ccc(F)cc2Cl)nc2ccsc2c1=O (stereo not given) the results were Sa growth 42C 107, GIV-Gai inh 108 and Sa growth 42C second temp 101.
Screening OC(CN1CCC(c2nc3ccccc3o2)CC1)c1ccccc1 (stereo not given) returned HCMV NEC inh -19, Sa growth 42C 108 and Sa growth 42C second temp 91.
`COc1ccc(-c2nc(SCC(=O)N3CCCC3)n[nH]2)cc1` gave Sa growth 42C 85, GIV-Gai inh 107 and Sa growth 42C second temp 85.
`O=C(c1ccc(-n2cnnn2)cc1)N1CCN(C(c2ccccc2)c2ccccc2)CC1` gave HCMV NEC inh -35, Sa growth 42C 101 and Sa growth 42C second temp 92.
Cc1cc(S(=O)(=O)NCc2csc(-c3cccs3)n2)c(C)s1 was read as HCMV NEC inh -30, Sa growth 42C 102, GIV-Gai inh 99 and Sa growth 42C second temp 76.
`CN(C)C(CNC(=O)c1ccc(-c2ccccc2)cc1)c1ccco1` (stereo not given) gave HCMV NEC inh -25, Sa growth 42C 103 and Sa growth 42C second temp 85.
`O=c1[nH]c(=S)c2c(n1N1CCOCC1)CCC2` gave HCMV NEC inh -20, Sa growth 42C 113 and Sa growth 42C second temp 82.
Screening Cc1cc(=O)[nH]c(SCC(=O)NCCCc2ccccc2)n1 returned HCMV NEC inh -14, Sa growth 42C 83 and Sa growth 42C second temp 88.
`CN1CCc2c(sc3c2C(=O)NC(c2cccc(O)c2)N3)C1` (stereo not given) gave HCMV NEC inh -50, Sa growth 42C 97, GIV-Gai inh 117 and Sa growth 42C second temp 94.
NC(=S)N/N=C1/C2C3CC4C1C1C2CC3C41 (stereo not given) was read as HCMV NEC inh -18, Sa growth 42C 106 and Sa growth 42C second temp 92.
`CC(C)NC(=O)Nc1cccc(-c2noc(C3(c4ccccc4)CC3)n2)c1` gave HCMV NEC inh 11 and GIV-Gai inh 106.
For COc1cccc(C(=O)N2CC(=O)Nc3ccccc32)c1 the results were HCMV NEC inh 8 and GIV-Gai inh 103.
`Cc1ccnc(SC(C)C(=O)O)n1` (stereo not given) gave Sa growth 42C 62, GIV-Gai inh 104 and Sa growth 42C second temp 95.
Screening COc1ccc(NC2c3ccccc3C(=O)N2c2ccc(Cl)cc2)cc1 (stereo not given) returned Sa growth 42C 104, GIV-Gai inh 100 and Sa growth 42C second temp 96.
`CCOC(=O)c1ccccc1NC(=O)CSc1c(C)cnc2c1c(=O)n(C)c(=O)n2C` gave Sa growth 42C 143, GIV-Gai inh 105 and Sa growth 42C second temp 86.
CN(c1ccc(Cl)cc1)c1nc(O)c(C2=c3cc(F)ccc3=NC2=O)s1 was read as HCMV NEC inh 0, Sa growth 42C 97, GIV-Gai inh 111 and Sa growth 42C second temp 100.
`CCSc1ncc(Cl)c(C(=O)Nc2c(C(=O)Nc3cccc(C)c3)oc3ccccc23)n1` gave HCMV NEC inh 9, Sa growth 42C 95, GIV-Gai inh 106 and Sa growth 42C second temp 96.
Screening CCOc1ccc(CN(C)CC(O)COCC2CCCO2)cc1 (stereo not given) returned HCMV NEC inh -9, Sa growth 42C 97 and Sa growth 42C second temp 90.
CCCCCc1ccc(-c2ccc(Br)cc2)nc1 was read as HCMV NEC inh -27, Sa growth 42C 102, GIV-Gai inh 108 and Sa growth 42C second temp 89.
CCCCN1C(=O)C(O)(CC(=O)c2ccc3c(c2)OCCO3)c2ccccc21 (stereo not given) was read as HCMV NEC inh -25, Sa growth 42C 107, GIV-Gai inh 108 and Sa growth 42C second temp 87.
`COC(=O)c1nnn(-c2cccc(C)c2)c1C(=O)OC` gave HCMV NEC inh -6, Sa growth 42C 109, GIV-Gai inh 100 and Sa growth 42C second temp 93.
CCOC(=O)c1c(NC(=O)c2ccc(Cl)c([N+](=O)[O-])c2)sc(C(=O)Nc2ccccc2C)c1C was read as HCMV NEC inh -21 and GIV-Gai inh 103.
For Cc1ccc(NC(=O)c2ccc(-c3ccccc3)cc2)nc1 the results were Sa growth 42C 66, GIV-Gai inh 102 and Sa growth 42C second temp 54.
`O=S(=O)(NCc1cn2ccsc2n1)c1ccc(Cl)cc1` gave HCMV NEC inh -21 and GIV-Gai inh 104.
Screening O=C(CSc1nnc2n(Cc3ccco3)c(=O)c3sccc3n12)Nc1ccc2c(c1)CCC2 returned HCMV NEC inh 1 and GIV-Gai inh 105.
CC(C)N(C(=O)COn1nnc2ccccc21)c1ccccc1 was read as HCMV NEC inh -35, Sa growth 42C 94 and Sa growth 42C second temp 76.
O=C(NCc1ccc(F)cc1)c1cc2c(s1)CN(C1CCCCCC1)C2 was read as HCMV NEC inh -8, Sa growth 42C 90, GIV-Gai inh 98 and Sa growth 42C second temp 90.
Screening COc1ccccc1-c1c(C)nn2c(N3CCN(c4ccc(F)cc4)CC3)cc(C)nc12 returned Sa growth 42C 92, GIV-Gai inh 100 and Sa growth 42C second temp 86.
O=S(=O)(Cc1cccc(C(F)(F)F)c1)NCc1csc(-c2cccs2)n1 was read as HCMV NEC inh -26, Sa growth 42C 85, GIV-Gai inh 105 and Sa growth 42C second temp 71.
Screening COc1ccc(S(N)(=O)=O)cc1-c1noc(C(C)(C)C)n1 returned HCMV NEC inh -13 and GIV-Gai inh 110.
CCOC(=O)c1c(S(=O)(=O)NCC(=O)N2CCN(c3ccccc3)CC2)c(C)n(C)c1C was read as Sa growth 42C 96, GIV-Gai inh 107 and Sa growth 42C second temp 91.
For COc1ccccc1CNC(=O)c1ccc2c(c1)N(Cc1ccc(F)cc1Cl)C(=O)CS2 the results were Sa growth 42C 103, GIV-Gai inh 100 and Sa growth 42C second temp 86.
`Cc1cccc2cc3c(nc12)N(C(=O)CC(C)C)CC3` gave HCMV NEC inh 0 and GIV-Gai inh 101.
For CCn1c(=O)c2cc(C(=O)NCCCN3CCCCCC3)sc2c2ccccc21 the results were Sa growth 42C 101, GIV-Gai inh 101 and Sa growth 42C second temp 55.
O=C(CN(C(=O)c1cc2c(s1)CCC2)C1CCCC1)NCc1cccs1 was read as HCMV NEC inh -7, Sa growth 42C 114, GIV-Gai inh 104 and Sa growth 42C second temp 97.
For Cc1cccc(N2CCn3c2nc2c3c(=O)n(C/C=C/c3ccccc3)c(=O)n2C)c1 the results were Sa growth 42C 104, GIV-Gai inh 103 and Sa growth 42C second temp 96.
Screening CC1CCCCN1C(=O)C1CCN(S(=O)(=O)c2ccc(-n3cnnn3)cc2)CC1 (stereo not given) returned HCMV NEC inh -29, Sa growth 42C 84, GIV-Gai inh 99 and Sa growth 42C second temp 95.
For COc1ccc(Nc2nc(C)c(NC(C)=O)c(Nc3ccc(OC)cc3)n2)cc1 the results were HCMV NEC inh 5 and GIV-Gai inh 103.
For Cc1cc(C(=O)Nc2sc(C)c(C)c2C(=O)NCc2cccnc2)no1 the results were HCMV NEC inh -3, Sa growth 42C 122, GIV-Gai inh 109 and Sa growth 42C second temp 99.
For CCOCN(C(=O)Cn1c(COC)nc2ccccc21)c1c(C)cccc1CC the results were HCMV NEC inh -17&5, Sa growth 42C 104, GIV-Gai inh 105&111 and Sa growth 42C second temp 83.
Screening O=c1[nH]c(SCc2ccc(Cl)cc2)nc2c(-c3ccccc3)c[nH]c12 returned HCMV NEC inh -29 and GIV-Gai inh 106.
Clc1cccc(-c2nnc3sc(-c4ccc5ccccc5n4)nn23)c1 was read as HCMV NEC inh -24 and GIV-Gai inh 114.
Screening COc1cc(/C=c2\sc3nc4ccccc4n3c2=O)ccc1OCCOc1ccc(C)c(C)c1 returned HCMV NEC inh -5 and GIV-Gai inh 107.
For N#Cc1sc2sc(C#N)c(-c3cccs3)c2c1N the results were HCMV NEC inh -7, Sa growth 42C 98, GIV-Gai inh 105 and Sa growth 42C second temp 81.
For O=C(NCC1CCCO1)c1cccc(Nc2nc3ccccc3n3cnnc23)c1 (stereo not given) the results were HCMV NEC inh -37, Sa growth 42C 108, GIV-Gai inh 108 and Sa growth 42C second temp 57.
`Cc1ccc(S(=O)(=O)c2nnn3c2nc(N2CCN(c4ccccc4F)CC2)c2ccccc23)cc1C` gave Sa growth 42C 111, GIV-Gai inh 101 and Sa growth 42C second temp 94.
O=c1c2c(nc3nc(CNc4ccc(F)cc4)[nH]n13)CCC2 was read as HCMV NEC inh 1 and GIV-Gai inh 111.
For O=C(Cc1ccc(Br)cc1)Nc1ccc(-c2nnc(-c3ccccc3)o2)cc1 the results were HCMV NEC inh -5, Sa growth 42C 104, GIV-Gai inh 103 and Sa growth 42C second temp 93.
Screening CCOc1ccc(-n2c(=O)c3c(C)c(C(=O)N(C)C)sc3n(Cc3cc(C)ccc3C)c2=O)cc1 returned Sa growth 42C 87, GIV-Gai inh 100 and Sa growth 42C second temp 94.
COc1ccc(OC)c(NC(=O)CSc2c3c(nc4ccccc24)CCCC3)c1 was read as HCMV NEC inh -29, Sa growth 42C 91, GIV-Gai inh 103 and Sa growth 42C second temp 89.
`Cc1ccccc1NC(=O)CN1N=C(c2ccccc2)c2ccccc2S1(=O)=O` gave HCMV NEC inh -5 and GIV-Gai inh 105.
For Cc1cccc(C)c1OCC(=O)N(CC(N)=O)C(C)C the results were HCMV NEC inh -20, Sa growth 42C 116 and Sa growth 42C second temp 85.
Screening CC(C)Cn1c(N)c(C(=O)NCc2cccs2)c2nc3ccccc3nc21 returned HCMV NEC inh -14, Sa growth 42C 110, GIV-Gai inh 97 and Sa growth 42C second temp 94.
For CCOc1cc(C2Nc3ccc4ncccc4c3C3=C2C(=O)CCC3)ccc1O (stereo not given) the results were HCMV NEC inh -6, Sa growth 42C 95, GIV-Gai inh 94 and Sa growth 42C second temp 96.
CCCN(CC(=O)Nc1ccccc1C)C(=S)NC was read as HCMV NEC inh 2, Sa growth 42C 96 and Sa growth 42C second temp 96.
For CCCCOc1ccc(C(=O)Nc2ccc3oc(-c4cccnc4)nc3c2)cc1 the results were HCMV NEC inh -48, Sa growth 42C 99, GIV-Gai inh 103 and Sa growth 42C second temp 87.
Screening Cc1ccc2ncc(C(=O)NC(C)(C)C)c(=O)n2c1 returned HCMV NEC inh -45, Sa growth 42C 90, GIV-Gai inh 120 and Sa growth 42C second temp 83.
Oc1ccccc1Nc1nc(-c2ccccc2)c2cc(Cl)ccc2n1 was read as HCMV NEC inh 16, Sa growth 42C 110, GIV-Gai inh 107 and Sa growth 42C second temp 105.

Not a retest: an excerpt of the list.
`Cc1ccc(S(=O)(=O)c2nnn3c2nc(N2CCN(c4ccccc4F)CC2)c2ccccc23)cc1C` gave Sa growth 42C 111, GIV-Gai inh 101 and Sa growth 42C second temp 94.
O=c1c2c(nc3nc(CNc4ccc(F)cc4)[nH]n13)CCC2 was read as HCMV NEC inh 1 and GIV-Gai inh 111.
For O=C(Cc1ccc(Br)cc1)Nc1ccc(-c2nnc(-c3ccccc3)o2)cc1 the results were HCMV NEC inh -5, Sa growth 42C 104, GIV-Gai inh 103 and Sa growth 42C second temp 93.
Screening CCOc1ccc(-n2c(=O)c3c(C)c(C(=O)N(C)C)sc3n(Cc3cc(C)ccc3C)c2=O)cc1 returned Sa growth 42C 87, GIV-Gai inh 100 and Sa growth 42C second temp 94.
COc1ccc(OC)c(NC(=O)CSc2c3c(nc4ccccc24)CCCC3)c1 was read as HCMV NEC inh -29, Sa growth 42C 91, GIV-Gai inh 103 and Sa growth 42C second temp 89.
`Cc1ccccc1NC(=O)CN1N=C(c2ccccc2)c2ccccc2S1(=O)=O` gave HCMV NEC inh -5 and GIV-Gai inh 105.
For Cc1cccc(C)c1OCC(=O)N(CC(N)=O)C(C)C the results were HCMV NEC inh -20, Sa growth 42C 116 and Sa growth 42C second temp 85.
Screening CC(C)Cn1c(N)c(C(=O)NCc2cccs2)c2nc3ccccc3nc21 returned HCMV NEC inh -14, Sa growth 42C 110, GIV-Gai inh 97 and Sa growth 42C second temp 94.
For CCOc1cc(C2Nc3ccc4ncccc4c3C3=C2C(=O)CCC3)ccc1O (stereo not given) the results were HCMV NEC inh -6, Sa growth 42C 95, GIV-Gai inh 94 and Sa growth 42C second temp 96.
CCCN(CC(=O)Nc1ccccc1C)C(=S)NC was read as HCMV NEC inh 2, Sa growth 42C 96 and Sa growth 42C second temp 96.

More results follow.
`O=C(CSc1nc2sc3c(c2c(=O)[nH]1)CCCC3)Nc1nc2c(s1)CCCC2` gave HCMV NEC inh -24, Sa growth 42C 97, GIV-Gai inh 104 and Sa growth 42C second temp 86.
Cc1sc(NC(=O)c2ccccc2F)c(C(=O)O)c1C was read as HCMV NEC inh -58, Sa growth 42C 146, GIV-Gai inh 100 and Sa growth 42C second temp 88.
For Cc1nnc(SCC(=O)NC(=O)C2COc3ccccc3O2)n1Cc1ccccc1 (stereo not given) the results were HCMV NEC inh -5, Sa growth 42C 114 and Sa growth 42C second temp 95.
Screening O=C(NCc1cccs1)c1ccc2c(c1)N(Cc1ccccc1)C(=O)CS2 returned Sa growth 42C 85, GIV-Gai inh 98 and Sa growth 42C second temp 80.
For CCCOc1ccc(Cl)cc1C(=O)O the results were HCMV NEC inh 3, Sa growth 42C 88, GIV-Gai inh 100 and Sa growth 42C second temp 97.

High-throughput results (PubChem BioAssay)
